VDR inhibitor: Inhibitors of the vitamin D receptor (VDR): qHTS | Vitamin D3 receptor (Homo sapiens), P11473 | Potency, µM, without a hit: max response, negative = inhibition, usual class: inhibitors | 400,000 compounds, 0.93% hits | VDR-SRC2-3 peptide fluorescence polarization, 2 h; active means well fitted inhibition curve with a large enough effect; inconclusive means small, poorly fitted or top-dose-only effect, or another doubt; inactive means no such curve, though single readings can be large or run the other way; further: series mostly up to about 120 µM
Target sequence (P11473 whole entry, looked up): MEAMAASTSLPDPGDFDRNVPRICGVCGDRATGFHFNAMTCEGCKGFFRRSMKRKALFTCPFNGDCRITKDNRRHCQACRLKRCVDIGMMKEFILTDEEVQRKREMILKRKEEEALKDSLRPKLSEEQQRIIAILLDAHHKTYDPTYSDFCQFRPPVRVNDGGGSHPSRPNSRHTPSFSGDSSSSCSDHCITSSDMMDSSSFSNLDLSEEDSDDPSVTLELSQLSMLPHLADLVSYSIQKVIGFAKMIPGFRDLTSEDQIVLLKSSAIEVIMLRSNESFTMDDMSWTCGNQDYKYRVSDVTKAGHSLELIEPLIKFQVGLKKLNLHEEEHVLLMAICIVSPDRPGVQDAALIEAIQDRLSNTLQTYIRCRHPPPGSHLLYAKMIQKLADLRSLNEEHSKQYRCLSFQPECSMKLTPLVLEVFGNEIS
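Measured by FP: displacement of SRC2-3 coactivator peptide from VDR by library compounds, following a two-hour ambient incubation.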
Starred values were filed as active, the others as inactive; ? = inconclusive; & = joins results of further samples; [ ] = dose if it differs, or a comment. On the % scale 0 is the no-effect control and ±100 the full control effect; potency means the concentration at half of the fitted maximal effect. Only part of the results is shown (hit frequency here may not be typical).

SMILES | VDR inhibitor
S=C(c1ccc(-c2ccccc2)o1)N1CCCCC1 | ?
CN(CC(=O)Nc1ccccc1C(=O)N1CCCC1)S(=O)(=O)c1ccc(Cl)cc1 | -7.0%
O=C(NCC1CCCO1)c1ccc(COc2ccc(F)cc2)o1 (centres undefined) | -0.3%
COc1ccc(NC(=O)N2CC[C@@]3(CCCN(C(=O)c4ccncc4)C3)C2)cc1 | -4.0%
O=C(c1cc(COc2c(F)cccc2F)on1)N1CCC(c2ccccc2Cl)C1 (centres undefined) | -24.4%
CCOC(=O)C1=C(C)Nc2nc(C)nn2C1c1ccc(OCC)c(OC)c1 (centres undefined) | -16.5%
CC(C(=O)O)n1cnc2sc3c(c2c1=O)CCCC3 (centres undefined) | 31.1%[activator]
CCOc1ccc(Nc2oc(/C=C/c3cccc(OC)c3)nc2C#N)cc1 | 0.7%
CCCCN(C)C(=O)C1CCC(CNS(=O)(=O)c2ccc3c(c2)CC(C)N3C(=O)C2CC2)CC1 (centres undefined) | -9.8%
COc1ccc(Cl)cc1S(=O)(=O)N1CCC(C(=O)NCC2CCCO2)CC1 (centres undefined) | -2.3%
CCCOc1ccc(/C=N/Nc2ccccn2)cc1OC | 2.4%
CCC(=O)N1c2ccccc2CC1C(=O)NCCc1ccc(SC)cc1 (centres undefined) | 17.8%
COc1cc2[nH]c(Cl)c([N+](=O)[O-])c2cc1OC | ?
Cc1c(NC(=O)COC(=O)CSc2ccc([N+](=O)[O-])cc2)c(=O)n(-c2ccccc2)n1C | -8.3%
NC(=S)NN=C1CCC2(CCCCC2)CC1 | -12.1%
O=S(=O)(NCC(c1cccs1)N1CCc2ccccc2C1)c1ccccc1 (centres undefined) | -13.2%
Cc1ccc(C)c(NC(=S)NNC(=O)c2sccc2C)c1 | 9.2%
CCCc1ccc2oc(C(=O)NCc3nnc(C)o3)c(C)c2c1 | 27.9%
COc1ccc(NC(=O)CN2C(=O)C(C)Oc3ccc(C)cc32)cc1 (centres undefined) | -13.1%
CC(=O)c1c(O)c(C)c(-c2ccccc2)n(-c2ccccc2)c1=O | -4.0%
COC(=O)CSc1nc2c(c(=O)n(C)c(=O)n2C)n1CCC(C)C | -9.8%
O=C(O)CCC(=O)NNC(=O)CCCOc1ccc(Cl)cc1Cl | -8.7%
COC(=O)/C=C1\SC(N)=NC1=O | 0.3%
CCN(C(=O)c1cccs1)c1nnc(-c2ccncc2)s1 | -10.9%
COc1ccccc1NC(=O)CSc1oc(-c2ccccc2)nc1S(=O)(=O)c1ccccc1 | 9.1%
Cc1nc2sc(C(=O)O)c(N)c2c2c1COC(C)(C)C2 | ?
Cc1ccccc1CN(C)C(=O)COC(=O)CSc1ccc([N+](=O)[O-])cc1 | -5.4%
CC(C)Cn1c(=O)c2ccccc2n2c(CCC(=O)NCC3CCCO3)nnc12 (centres undefined) | -1.7%
Cc1nnc(SCCC(C)C)[nH]c1=O | 8.7%
Cc1cc(NC(=O)CN2CCC(n3nnc4cc(C(F)(F)F)ccc43)CC2)no1 | -9.0%
Cc1c(NC(=O)CSC2=C(C#N)C(c3ccccc3F)CC(=O)N2)c(=O)n(-c2ccccc2)n1C (centres undefined) | -2.7%
Cc1ccc(-c2nnc(N3CCN(C(=O)CN4C(=O)c5ccccc5C4=O)CC3)c3ccccc23)cc1 | 5.7%
Cc1cc(NC(=O)CSc2nc3ccccc3n2CC(C)C)no1 | -13.7%
Cc1cc(C)cc(N2C(=O)CSC23C(=O)N(CC(=O)Nc2ccc(F)cc2F)c2ccccc23)c1 (centres undefined) | 2.9%
CC(CCc1ccco1)NC(=O)CCc1nnc2ccc(NCc3ccccc3)nn12 (centres undefined) | -23.3%
CCC(C)[C@H](NC(=O)N1CCN(C)CC1)C(=O)OC (some centres undefined) | -6.9%
COC(=O)C1(S(=O)(=O)C2(C(=O)OC)CCCC2)CCCC1 | 10.8%
CCCCOC(=O)c1sc2nc(N3CCOCC3)c3c(c2c1N)CC(C)(C)OC3 | 9.9%
O=C(c1ccc2snnc2c1)N1CCSCC1 | -12.9%
COCCCNC(=S)N1CCN(S(=O)(=O)c2ccc(OC)cc2)CC1 | -4.9%
COc1ccc(OC)c(-c2csc(NC(=O)Cc3ccccc3F)n2)c1 | 20.6%
CC[C@@H](C)C(NC(=O)OC(C)(C)C)c1cn([C@@H](Cc2cc3ccccc3[nH]2)C(=O)N2CCN(C(=O)OC(C)(C)C)CC2)nn1 (some centres undefined) | 0.9%
COc1cc(-c2nnc(SCCOc3ccc(Cl)cc3C)o2)cc(OC)c1OC | 5.8%
O=C(COC(=O)[C@H](Cc1ccccc1)NC(=O)c1ccco1)NCc1ccccc1 | 23.7%
O=C(COC(=O)c1ccc([N+](=O)[O-])s1)Nc1ccccc1 | -23.1%
COCCn1nnnc1C(c1ccccc1OC)N1CCN(C(=O)c2ccco2)CC1 (centres undefined) | 6.1%
O=C(c1ccccc1Sc1ccc([N+](=O)[O-])cc1Cl)N1CCOCC1 | -5.6%
Cc1cccc(OCc2ccc(-c3nc(C#N)c(N4CCC(C(N)=O)CC4)o3)o2)c1 | -0.6%
O=C(NCc1ccccc1)C1CCCN(c2cnccn2)C1 (centres undefined) | -10.7%
CC(=O)NCCNC(=O)c1oc2ccccc2c1CSc1ncn[nH]1 | 3.2%
CCOC(=O)N1CCN(C(=O)CN2C(=O)CC(C)(C)S(=O)(=O)c3ccccc32)CC1 | 10.9%
COc1ccc2occ(C(=O)c3ccccc3)c2c1 | -14.1%
COc1ccc(-n2nc(C(=O)N3CCC(C#N)CC3)c3c4ccccc4n(C)c3c2=O)cc1 | 4.6%
Nc1nnc(CC(=O)N/N=C/c2ccc(-c3ccccc3Cl)o2)s1 | 9.5%
Cn1cccc2[nH]c(=O)nc1-2 | 6.7%
CC(C)NC(=O)N(C)C[C@H]1Oc2c(NC(=O)C3CC3)cccc2C(=O)N([C@H](C)CO)C[C@@H]1C | 1.8%
CCC1CCC2(CC1)SCC(=O)N2c1ccccc1 (centres undefined) | -0.7%
CC(=O)Nc1cc(C(=O)OCC(=O)c2ccc(C)cc2)ccc1C | -2.9%
CCOC(=O)c1ccc(NC(=O)C2CCN(S(=O)(=O)CC)CC2)cc1 | 4.1%
COc1cc(CC(=O)NCCc2ccc(OCc3ccccc3)cc2)c([N+](=O)[O-])cc1OC | -3.3%
(next part)
SMILES | VDR inhibitor
Cc1ccc(C2CN=NC23CCc2ccccc2C3=O)cc1 (centres undefined) | 5.4%
c1ccc(-c2csc3ncnc(N4CCc5ccccc5C4)c23)cc1 | -2.1%
Cc1cccc(NC(=O)CC2Nc3cccc4cccc(c34)NC2=O)c1 (centres undefined) | -14.8%&-5.7%
CC(C)n1c(SCC(=O)N2CCN(C(=O)c3ccco3)CC2)nc2c1c(=O)n(C)c(=O)n2C | -0.1%
O=C(On1c(-c2ccccc2)nc2ccccc2c1=O)c1ccco1 | -24.4%
COc1cc(C2c3cc4c(cc3OC(C)(N3CCCC3)C2C)OCO4)cc(OC)c1OC (centres undefined) | 11.3%
Cc1nn(Cc2ccccc2Cl)c(C)c1NC(=O)c1cc(C(C)C)on1 | 0.6%
COc1ccc(CNS(=O)(=O)c2ccc3c(c2)CCN3C(=O)C2CC2)cc1 | 3.2%
COc1cc2ccccc2cc1C(=O)N1CCCC(C(F)(F)F)C1 (centres undefined) | 2.6%
COc1ccccc1-c1nnc(NC(=O)c2ccc(S(=O)(=O)N(C)C)cc2)o1 | 10.2%
O=C1[C@H]2[C@@H](c3ccc(Cl)cc3)N3C(=O)N(c4cccc(Br)c4)C(=O)[C@@]3(Cc3ccc(Cl)cc3)[C@H]2C(=O)N1C1CCCCC1 | 16.2%
O=C(O)c1ccccc1SCC(=O)N1CCc2ccccc21 | -16.1%
COc1cccc(-c2nc3n(n2)C(c2cccs2)C(C(=O)Nc2cccnc2)=C(C)N3)c1 (centres undefined) | -8.1%
COCCNc1nc(SC)nc2sc3c(c12)CCN(C)C3 | -5.7%
CCOC(=O)c1nc(NCc2ccccc2)sc1C | 70.8µM*
CCN(CC)CCNC(=O)c1ccc(NC(=O)c2ccc(F)cc2F)cc1 | 1.6%
CCc1ccc(-n2c(SCC(=O)NC(C)CC)nc3n[nH]c(C)c3c2=N)cc1 (centres undefined) | 4.4%
Cc1ccc(C)c(NS(=O)(=O)c2cc(C(=O)N3CCCC3)ccc2Cl)c1 | 4.9%
Cc1ccc(NC(=O)C2CCCCC2C(=O)O)cc1C (centres undefined) | -7.9%
Cc1ccc(S(=O)(=O)NCCc2cn3nc(C)c(C)nc3n2)cc1C | 6.4%
Cc1ccc(S(=O)(=O)N(C)CCCC(=O)Nc2ccc(F)cc2)cc1 | 6.4%
CC(=O)Nc1ccc(S(=O)(=O)N2CCN(Cc3nc4sc(C)c(C)c4c(=O)[nH]3)CC2)cc1 | -15.3%
CC1(NC(=O)CSc2nnc(-c3c[nH]c4ccccc34)n2C2CC2)CCS(=O)(=O)C1 (centres undefined) | -16.0%
COc1ccc(Cn2c(=O)[nH]c3cc(C(=O)Nc4ccccc4C)ccc32)cc1 | 9.6%
O=C(O)c1ccc2c(c1)C(=O)N(c1cccc(S(=O)(=O)Nc3cccc(C(F)(F)F)c3)c1)C2=O | -7.8%
Cc1ccc(NC(=O)NCc2cccnc2)cc1Cl | -16.9%
CC(C)C[C@@H](CC(=O)N[C@@H](CCC(=O)O)CC(=O)O)NC(=O)[C@@H]1CCCC[C@H]1NC(=O)C[C@@H](NC(=O)C[C@H](Cc1ccccc1)NC(=O)[C@@H]1CCCC[C@H]1N)C(C)C | 0.4%
O=C(CC1NCCNC1=O)Nc1cccc([N+](=O)[O-])c1 (centres undefined) | -28.8%
O=C(Nc1cccc(S(=O)(=O)N2CCOCC2)c1)C1CCCN(C(=O)c2ccc(Cl)cc2)C1 (centres undefined) | -21.4%
NC(=O)c1oc2ccccc2c1NC(=O)CS(=O)(=O)c1ccccc1 | -3.8%

An excerpt of these results, as labelled records.
CCN(CC)CCNC(=O)c1ccc(NC(=O)c2ccc(F)cc2F)cc1
  VDR inhibitor = 1.6%

O=C(Nc1cccc(S(=O)(=O)N2CCOCC2)c1)C1CCCN(C(=O)c2ccc(Cl)cc2)C1 (centres undefined)
  VDR inhibitor = -21.4%

CC1(NC(=O)CSc2nnc(-c3c[nH]c4ccccc34)n2C2CC2)CCS(=O)(=O)C1 (centres undefined)
  VDR inhibitor = -16.0%

CC(C)C[C@@H](CC(=O)N[C@@H](CCC(=O)O)CC(=O)O)NC(=O)[C@@H]1CCCC[C@H]1NC(=O)C[C@@H](NC(=O)C[C@H](Cc1ccccc1)NC(=O)[C@@H]1CCCC[C@H]1N)C(C)C
  VDR inhibitor = 0.4%

Further records follow:
SMILES | VDR inhibitor
COC(=O)c1ccc(Nc2ncnc3sccc23)cc1 | 31.1%[activator]
COc1ccccc1OCCn1c(=O)n(C)c2ccccc21 | -4.1%
O=C(COC(=O)COc1cccc(F)c1)Nc1nc2ccccc2s1 | 4.6%
CC(=O)c1ccc(S(=O)(=O)N(C)CCCC(=O)N2CCN(c3ncccn3)CC2)cc1 | 1.0%
Cc1ccc(N2C(=O)CC(N3CCc4ccccc43)C2=O)cc1Cl (centres undefined) | 17.6%
O=C1c2ccccc2C(=O)c2c(/C=C/N3CCCCC3)ccnc21 | -6.9%
Cc1ccc(NC(=O)C2CCCN(c3ncccn3)C2)cc1C (centres undefined) | 5.4%
CCCCN(C(=O)c1cccc2c(=O)c(C)c(-c3ccccc3)oc12)c1ccccc1 | 0.7%
COc1ccc(C(=O)CC2(O)C(=O)Nc3c(C)cccc32)c(OC)c1OC (centres undefined) | 2.5%
CCOC(=O)C1=C(N)N2C(=O)C(C)SC2=C(C(=O)OCC)C1c1ccccc1 (centres undefined) | -3.6%
Cc1cccc(C(=O)Nc2nnc(COc3ccccc3)s2)c1 | -1.6%
C[C@H](NC(=O)c1ccccc1Cl)C(=O)OCC(=O)NNC(=O)c1cccs1 | -0.9%
O=C(NC(C(=O)N1CCCC1C(=O)O)=C1CCCCC1)c1ccccc1 (centres undefined) | -19.1%
Cc1ccc2[nH]c(=O)c(CNC(C)(C)C)cc2c1 | 13.5%
Nc1nnc(CSCc2ccc(F)cc2)s1 | -18.5%

Entries from the list above containing a cyano group, in the order listed:
SMILES | VDR inhibitor
CCOc1ccc(Nc2oc(/C=C/c3cccc(OC)c3)nc2C#N)cc1 | 0.7%
Cc1c(NC(=O)CSC2=C(C#N)C(c3ccccc3F)CC(=O)N2)c(=O)n(-c2ccccc2)n1C (centres undefined) | -2.7%
Cc1cccc(OCc2ccc(-c3nc(C#N)c(N4CCC(C(N)=O)CC4)o3)o2)c1 | -0.6%
COc1ccc(-n2nc(C(=O)N3CCC(C#N)CC3)c3c4ccccc4n(C)c3c2=O)cc1 | 4.6%

Further compounds follow:
SMILES | VDR inhibitor
Cc1nn2c(NCCCN(C)C)c3c(nc2c1-c1ccccc1)CCC3 | -4.8%
O=C(NCCOc1ccc(F)cc1)c1ccccc1SCc1ccccc1 | -8.6%
CCCCNCC#CCOc1cc(C)ccc1C(C)C | 0.3%
Cc1[nH]c(=O)cc2ccccc12 | -3.9%
CC1=C(C(=O)Nc2ccccc2C)C(c2cccs2)NC(=S)N1 (centres undefined) | -23.2%
CCc1ccccc1NC1=NCC(=O)N1Cc1ccccc1 | -6.6%
CN(C)c1oc(/C=C/c2cccs2)nc1S(=O)(=O)c1ccccc1 | -19.5%
COc1ccc(-c2noc(C(C)NC(=O)c3ccco3)n2)cc1OC (centres undefined) | 14.0%
CCNCc1ccccc1OCc1ccccc1 | -1.9%
COC(=O)CCCC1=CC2=C(c3ccccc3)C(=O)C(C)(OC(=O)C3CCCC3)C(=O)C2=CN1CC1CC1 (centres undefined) | 3.9%
CCOC(=O)C1CCCN(Cc2nc(Cc3ccccc3Cl)no2)C1 (centres undefined) | -1.7%
CN1CCN(C(=O)c2cnn(-c3cccc(F)c3)c2C2CCN(C(=O)OC(C)(C)C)CC2)CC1 | 8.2%
CC(=O)N1CCN(c2ccc(NC(=O)c3ccc(OCc4ccccc4)cc3)cc2)CC1 | 28.2µM*
Cc1oc(-c2ccc(C(=O)NCc3ccc(F)cc3)cc2)nc1CS(=O)c1ccccc1 (centres undefined) | 11.4%

High-throughput results: PubChem, National Center for Advancing Translational Sciences (NCATS)
